rRNA inh HTS – reduced GFP signal of wild-type E. coli, primary screen, bacterial rRNA inhibitor project, GFP/RFP fluorescence, OD600, single point | GFP signal change (wild-type ribosome), % (concentration not given with the values) | E. coli WT GFP vs humanized-ribosome RFP mutants, 24 h; stronger effect = lower value; DMSO median 0, no signal -100 | AID 720706, 2013 | actives 1.6% (n = 350,000);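 active means significant combined selectivity score with lowered wild-type GFP, culture density cut under 30%, mutant RFP and density less affected; inactive means any of these conditions unmet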; further: one replicate is shown; some compounds called inactive have numbers as strong as hits
rRNA inh HTS OD600 – recorded beside rRNA inh HTS, whose call it bears; OD600 change, %; measured here: OD600 growth;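 optical density of the mix in the first replicate; 0 = DMSO median and -100 = no signal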
rRNA inh HTS RFP – recorded beside rRNA inh HTS, whose call it bears; RFP signal change, %; measured here: RFP humanized mutant strains;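 first replicate; 0 = DMSO median and -100 = no signal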
* marks the source's active call; other numbers are inactive results; & = joins results of further samples. This is a subset; count on the stated rates, not on these rows.

SMILES	rRNA inh HTS	rRNA inh HTS OD600	rRNA inh HTS RFP
COc1ccc(NC(=O)c2cc(C3CCCCN3C(=O)C3CC3)on2)c(C)c1 (stereo unspecified)	6	4	5.2
COc1cc(-c2coc3c(C(=O)NCc4ccc(N(C)C)cc4)cccc23)ccc1O	-10	-16	12
CSc1ncccc1C(=O)OCC(=O)N(C)Cc1ccc(C)cc1	4	6	-1.9
Cc1noc(C)c1NC(=O)N(C)C[C@@H]1OCc2cnnn2CCCC(=O)N([C@@H](C)CO)C[C@H]1C	14&1	11&5	2.3&-0.3
COc1ccc(C#Cc2cccc(-c3nc(C(=O)N4CCN(Cc5ccccc5)CC4)cc4c3[C@@H](CCO)N(S(=O)C(C)(C)C)C4)c2)cc1OC (stereo partly specified)	-2	-3	6.8
CCCN1C[C@@H](C)[C@H](OC)CN(C)C(=O)c2ccc(NC(=O)c3cccc(F)c3)cc2OC[C@H]1C	-5	-4	8.3
Cc1noc(C)c1S(=O)(=O)Nc1ccc2c(c1)CC(=O)N([C@H](C)CO)C[C@@H](C)[C@H](CN(C)C(=O)NC(C)C)O2	4	14	0.1
COCC#Cc1cnc2c(c1)C(=O)N([C@H](C)CO)C[C@@H](C)[C@H](CN(C)C(=O)Nc1ccc(OC)cc1)O2	4	8	-1.3
N#C[C@@H]1[C@@H](c2ccc(C#CCC3CCCC3)cc2)[C@H](CO)N1C(=O)CN1CCOCC1	5	3	1.1
Cc1noc(C)c1S(=O)(=O)Nc1ccc2c(c1)C(=O)N([C@H](C)CO)C[C@@H](C)[C@H](CN(C)C(=O)NC1CCCCC1)O2	1	-1	1.2
Cc1ccc(S(=O)(=O)N(C)C[C@@H]2OCCCC[C@H](C)Oc3ccc(NC(=O)Nc4ccccc4)cc3C(=O)N([C@H](C)CO)C[C@@H]2C)cc1	2	3	-1.2
Cc1ccc(S(=O)(=O)N(C)C[C@@H]2Oc3ccc(NC(=O)NC(C)C)cc3CC(=O)N([C@H](C)CO)C[C@@H]2C)cc1	-2	-2	1.2
COCC(=O)Nc1ccc2c(c1)C(=O)N(C)[C@H]1CC[C@H](CC(=O)NCc3cccc(F)c3)O[C@@H]1CO2	2	3	-0.3
C[C@@H]1CN(C)C(=O)Cc2cc(N)ccc2O[C@@H]1CN(C)C	3	3	0.2
CCCCn1nnnc1C1(C)CCC(=O)N1CCc1c[nH]c2ccccc12 (stereo unspecified)	7	8	-4.9
Cc1ccc(CN2C(=O)CCC2(C)c2nnnn2-c2ccc3c(c2)OCCO3)cc1 (stereo unspecified)	0	5	-2.2
COc1ccc(NC(=O)N(C)C[C@@H]2OCCCC[C@@H](C)Oc3ccc(N(C)C)cc3C(=O)N([C@@H](C)CO)C[C@H]2C)cc1	-3	-2	1.0
Cc1cccc(CN(C)C[C@@H]2OCc3cn(nn3)CCCC(=O)N([C@@H](C)CO)C[C@H]2C)c1	4	1	1.7
COc1ccc(C(N)c2csc(NC(=O)Nc3ccccc3C(C)(C)C)n2)cc1 (stereo unspecified)	-12	-35	1.4
C[C@@H]1CCCCO[C@H](CN(C)Cc2ccccc2)[C@H](C)CN([C@H](C)CO)C(=O)c2cc(NC(=O)Nc3cccc4ccccc34)ccc2O1	1	0	4.2
COc1ccc(CN(C)C[C@@H]2Oc3ccc(NC(=O)Nc4ccc5c(c4)OCO5)cc3C(=O)N([C@@H](C)CO)C[C@@H]2C)cc1	2	7	2.2
COC(=O)C[C@@H]1C=C[C@H](NS(=O)(=O)c2ccccc2F)[C@@H](CO)O1	5	3	-2.5
C[C@H]1CN([C@@H](C)CO)C(=O)Cc2cc(NS(=O)(=O)c3ccc(Cl)cc3)ccc2O[C@H]1CN(C)Cc1ccc(C(=O)O)cc1	-4	-8	-2.8
CO[C@H]1CN(C)C(=O)c2ccc(NS(=O)(=O)C3CCCCC3)cc2OC[C@@H](C)NC[C@@H]1C	4	8	-2.4
CO[C@@H]1CN(C)C(=O)c2cc(NC(=O)Nc3ccccc3F)ccc2OC[C@@H](C)N(C)C[C@@H]1C	0	-1	-4.5
O=C(C[C@@H]1C[C@H]2c3cc(NS(=O)(=O)c4ccc(F)cc4)ccc3O[C@H]2[C@@H](CO)O1)NCc1cc(F)ccc1F	3	-27	36
Cc1ccc(S(=O)(=O)N(C)C[C@@H]2OCCCC[C@@H](C)Oc3ccc(NC(=O)Nc4ccc(C(F)(F)F)cc4)cc3C(=O)N([C@@H](C)CO)C[C@@H]2C)cc1	4	1	-1.6
COc1ccc(NC(=O)N(C)C[C@@H]2Oc3ccc(NC(=O)NC(C)C)cc3C(=O)N([C@H](C)CO)C[C@@H]2C)cc1	5	5	-1.2
O=C(NCCNC(=O)c1ccc(-c2cccc(Cl)c2)o1)c1cnccn1	-13	-18	0.6
COc1ccc(NC(=O)N(C)C[C@H]2OCc3ccccc3-c3ccccc3C(=O)N([C@@H](C)CO)C[C@H]2C)cc1	1	2	0.0

The last 4 entries of the section before lead into the next.
SMILES	rRNA inh HTS	rRNA inh HTS OD600	rRNA inh HTS RFP
Cc1ccc(S(=O)(=O)N(C)C[C@@H]2OCCCC[C@@H](C)Oc3ccc(NC(=O)Nc4ccc(C(F)(F)F)cc4)cc3C(=O)N([C@@H](C)CO)C[C@@H]2C)cc1	4	1	-1.6
COc1ccc(NC(=O)N(C)C[C@@H]2Oc3ccc(NC(=O)NC(C)C)cc3C(=O)N([C@H](C)CO)C[C@@H]2C)cc1	5	5	-1.2
O=C(NCCNC(=O)c1ccc(-c2cccc(Cl)c2)o1)c1cnccn1	-13	-18	0.6
COc1ccc(NC(=O)N(C)C[C@H]2OCc3ccccc3-c3ccccc3C(=O)N([C@@H](C)CO)C[C@H]2C)cc1	1	2	0.0
COc1ccc(CN(C)C[C@H]2Oc3ccc(NS(=O)(=O)c4ccc(Cl)cc4)cc3CC(=O)N([C@H](C)CO)C[C@H]2C)cc1	-56	-76	-16
O=C(c1cccc(F)c1)N1CC(=O)N2[C@@H](CO)[C@@H](c3ccc(-c4cccnc4)cc3)[C@@H]2C1	2	21	-3.9
Cc1ccccc1-c1ccc(C2[C@H]3CNC[C@@H]2N3Cc2ccc3c(c2)OCO3)cc1 (stereo partly specified)	-5&-56	-27&-79	3.3&-17
COc1ccc(S(=O)(=O)N(C)C[C@H]2Oc3ccc(NC(=O)NC4CCCCC4)cc3C(=O)N([C@@H](C)CO)C[C@@H]2C)cc1	1	-5	0.9
CO[C@H]1CN(C)C(=O)c2cc(NC(=O)c3nc4ccccc4s3)ccc2OC[C@@H](C)N(Cc2cncnc2)C[C@@H]1C	-2	-6	2.7
C[C@@H]1CN([C@H](C)CO)C(=O)c2cc(NC(=O)Cc3cn(C)c4ccccc34)ccc2O[C@@H]1CN(C)C(=O)NC1CCCCC1	0	-5	0.6
CC(C)C[C@@H]1COc2cc(NCCCN3CCOCC3)ccc2S(=O)(=O)N1	12	15	-2.2
CN1C(=O)c2cc(NC(=O)c3ccccc3Cl)ccc2OC[C@@H]2O[C@H](CC(=O)O)CC[C@H]21	0	6	-3.3
COc1ccc(S(=O)(=O)N(C)C[C@@H]2OCCCC[C@@H](C)Oc3ccc(NS(C)(=O)=O)cc3C(=O)N([C@H](C)CO)C[C@H]2C)cc1	4	-5	0.8
CCCNC(=O)C[C@@H]1C[C@@H]2c3cc(NS(=O)(=O)c4ccc(OC)cc4)ccc3O[C@@H]2[C@H](CO)O1	-2	0	-2.0
COc1ccc(S(=O)(=O)N(C)C[C@H]2Oc3ccc(NC(=O)Nc4ccccc4)cc3CC(=O)N([C@@H](C)CO)C[C@@H]2C)cc1	-1	-2	2.8
CCCNC(=O)C[C@H]1C[C@H]2c3cc(NC(=O)NC4CCCCC4)ccc3O[C@H]2[C@H](CO)O1	4	1	-1.4
COCCN=C1Sc2ccccc2[C@@H]2C[C@H]3[C@H](CON3C)CN12	22	10	-1.5
C[C@@H]1CCCCO[C@H](CN(C)C(=O)Nc2ccc(C(F)(F)F)cc2)[C@H](C)CN([C@H](C)CO)C(=O)c2cc(NS(=O)(=O)c3ccc(F)cc3)ccc2O1	9	15	-2.2
C[C@H]1CN([C@@H](C)CO)C(=O)Cc2cc(NC(=O)Nc3ccc4c(c3)OCO4)ccc2O[C@H]1CN(C)Cc1ccc(Oc2ccccc2)cc1	-1	-4	-0.3

Taken from above:
Cc1ccccc1-c1ccc(C2[C@H]3CNC[C@@H]2N3Cc2ccc3c(c2)OCO3)cc1 (stereo partly specified) in rRNA inh HTS RFP reads 3.3&-17
COCCN=C1Sc2ccccc2[C@@H]2C[C@H]3[C@H](CON3C)CN12 in rRNA inh HTS RFP reads -1.5
O=C(c1cccc(F)c1)N1CC(=O)N2[C@@H](CO)[C@@H](c3ccc(-c4cccnc4)cc3)[C@@H]2C1 in rRNA inh HTS OD600 reads 21
CC(C)C[C@@H]1COc2cc(NCCCN3CCOCC3)ccc2S(=O)(=O)N1 in rRNA inh HTS OD600 reads 15

Next part:
SMILES	rRNA inh HTS	rRNA inh HTS OD600	rRNA inh HTS RFP
COCC(=O)N(C)C[C@H]1Oc2ncc(C#Cc3ccccc3OC)cc2C(=O)N([C@H](C)CO)C[C@@H]1C	0	-1	-2.1
CNC[C@@H]1Oc2c(NS(=O)(=O)c3ccc(OC)cc3)cccc2C(=O)N([C@@H](C)CO)C[C@H]1C	4	3	-0.7
CCN(CC)C(=O)c1ncn2c1C(=O)NC[C@H]2C	18	25	1.5
O=C(C[C@H]1CC[C@@H]2[C@H](COC[C@@H](O)CN2CC2CCCC2)O1)NCC1CC1	3	3	-4.4
C[C@H]1CN([C@@H](C)CO)C(=O)CCCn2cc(nn2)CO[C@H]1CN(C)C(=O)c1cc(-c2ccccc2)on1	-3	-7	-1.8
Cc1ccc(S(=O)(=O)N[C@H]2CC[C@@H](CCNC(=O)C3CCCC3)O[C@@H]2CO)cc1	0	9	-0.7
O=C(Cc1ccccn1)N1CC(=O)N2[C@H](CO)[C@H](c3ccc(C#CC4CC4)cc3)[C@@H]2C1	3	16	-2.4
COCC#Cc1cnc2c(c1)C(=O)N([C@H](C)CO)C[C@@H](C)[C@H](CN(C)S(=O)(=O)c1ccccc1)O2	5	7	-2.7
COCC(=O)Nc1ccc2c(c1)[C@@H]1C[C@@H](CC(=O)N[C@H](C)c3ccccc3)O[C@@H](CO)[C@@H]1O2	0	-1	-0.6
C[C@H](CO)N1C[C@H](C)[C@H](CN(C)S(=O)(=O)c2ccccc2C#N)OCc2cn(nn2)CCCC1=O	-1	3	0.3
CCN(C[C@H]1[C@H](c2ccc(C3=CCCC3)cc2)[C@@H](CO)N1C(C)=O)C(C)=O	2	-1	0.7
C[C@@H]1CCCCO[C@@H](CN(C)C(=O)CCCN(C)C)[C@@H](C)CN([C@@H](C)CO)C(=O)c2cc(NC(=O)c3ccccc3)ccc2O1	2	2	2.5
C[C@H](CO)N1C[C@H](C)[C@@H](CN(C)C(=O)Nc2ccc(F)cc2)Oc2ccc(NS(=O)(=O)c3ccc(Cl)cc3)cc2CC1=O	1	-12	-2.0
N#C[C@H]1[C@H](c2ccc(-c3ccccc3)cc2)[C@H](CO)N1C(=O)Cc1ccccc1	-7	5	4.1
O=C(COC(=O)c1cccc(F)c1)Nc1cccc(S(=O)(=O)N2CCCCC2)c1	-9	-14	2.0
COc1ccc(S(=O)(=O)Nc2ccc3c(c2)C(=O)N([C@@H](C)CO)C[C@@H](C)[C@H](CN(C)C(=O)c2ccncc2)OCCCC[C@H](C)O3)cc1	-3	1	0.7
C[C@@H]1CN([C@@H](C)CO)C(=O)c2cc(NS(=O)(=O)c3ccccc3)ccc2O[C@@H](C)CCCCO[C@H]1CN(C)Cc1ccncc1	-5	-7	0.8
CCCC#Cc1cnc2c(c1)C(=O)N([C@@H](C)CO)C[C@H](C)[C@H](CN(C)S(=O)(=O)c1cccc(OC)c1)O2	2	1	5.6
Cc1ccccc1-c1ccc2c(c1)O[C@H](CN(C)C)[C@H](C)CN([C@@H](C)CO)S2(=O)=O	3	14	-0.6
C#CCNC(=O)C[C@@H]1C[C@@]2(C(=O)OC)CCCCC=C2N(CCC2=CCCCC2)C1=O	-18	-20	2.6
CC1OC(CCc2cccc(Cl)c2)Cc2[nH][nH]c(=O)c21 (stereo unspecified)	-5	-2	-3.6
C[C@H](CO)N1C[C@H](C)[C@@H](CN(C)Cc2ccccc2)Oc2ncc(C#CCN(C)C)cc2C1=O	5	8	-3.4
C[C@H](CO)N1C[C@H](C)[C@@H](CN(C)Cc2ccc(-c3ccccc3)cc2)Oc2ncc(C#CCN(C)C)cc2C1=O	1	6	2.7
C[C@@H](NC(=O)C[C@H]1CC[C@H]2[C@@H](COC[C@H](O)CN2C(=O)Nc2cc(Cl)cc(Cl)c2)O1)c1ccccc1	-42	-54	5.1
NC(c1csc(Nc2ccc(C(=O)c3ccccc3)cc2)n1)c1ccccc1Cl (stereo unspecified)	-38	-47	-2.6
CNC[C@@H]1OCCCC[C@@H](C)Oc2ccc(NS(=O)(=O)c3cn(C)cn3)cc2C(=O)N([C@H](C)CO)C[C@H]1C	8	5	-4.3

Compound activity: PubChem BioAssay, Broad Institute
